SARS PLpro yeast: inhibitors of SARS-CoV papain-like protease in yeast; S. cerevisiae expressing SARS-CoV PLpro, growth rescue; control for the full effect not named in the record; Potency, µM (top dose mostly 32.9 µM), without a hit: at the highest dose activity, positive = growth rescue; hit rate 0.19% among 330,000; AID 485353; active means well fitted rising curve with a large enough effect; inconclusive means small, poorly fitted or top-dose-only effect; inactive means no such curve, though single readings can be large or run the other way; also: 0% is about no effect; nearly all actives have a fitted effect of over 55% in size; growth read by luminescence after 48 h
RE007 growth inh: less growth of the S. pombe RE007 Vpr strain | AID 651644 | S. pombe RE007 Vpr strain, BacTiter-Glo ATP luminescence, 24 h; control for the full effect not named in the record | Potency, µM (series often up to 92.2 µM), inactives show at the highest dose activity change, negative = less growth | hit rate 0.21% among 360,000; active = well fitted falling curve with a large enough effect; inconclusive = small, poorly fitted or top-dose-only effect; inactive = no such curve, though single readings can be large or run the other way;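 also: % is scaled to controls: 0 for no effect and ±100 for the full control effect; nearly all actives have a fitted effect of over 50% in size; the assay follows cell death caused by Vpr and the record does not say whether a fall means rescue or toxicity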
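Fission yeast RE007 carrying one integrated HIV-1 vpr copy, seeded at OD 0.01 in PMG+AL medium with 23 nL pinned compound. Grown 24 h at 30 degrees; viability read by BacTiter-Glo luminescence after 5 min.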
StopGo reporter: FMDV 2A StopGo reporter, luciferase signal | human cells with a luciferase reporter of 2A StopGo recoding; control for the full effect not named in the record | Potency, µM (highest dose often 57.9 µM), inactives show at the top dose signal change, negative = less light | hit rate 1.2% among 410,000 | AID 1159524; active = well fitted falling curve with a large enough effect; inconclusive = small, poorly fitted or top-dose-only effect; inactive = no such curve, though single readings can be large or run the other way; tested in HEK293T cells; also: % is scaled to controls: 0 for no effect and ±100 for the full control effect; nearly all actives have a fitted effect of over 45% in size; luciferase light after 4 h
* hit, by the source's call; ? = inconclusive; [ ] = remark or other dose. Potency is read from the fitted curve at half-maximal effect.

mol | SARS PLpro yeast | RE007 growth inh | StopGo reporter
COc1ccc(NC(=O)CSc2n[nH]c(-c3ccccc3)n2)cc1S(N)(=O)=O | 7% | 0% | -7%
Cc1cccc(-c2sc(Nc3ccccc3)n[n+]2-c2ccccc2)c1 | 3% | -5% | -21%
COCCNc1nnc(SCC(=O)NNC(=O)c2ccco2)s1 | -2% | 2% | -11%
COc1ccc(CNC(=O)COC(=O)c2ccc(C)c(S(=O)(=O)N3CCOCC3)c2)cc1 | -7% | 11% | -13%
CCOC(=O)[C@H]1[C@H]2COc3ccc(Cl)cc3[C@@H]2N2C(=O)c3cc(F)c(F)cc3NC(=O)[C@@]12C | 0% | 14% | 0%
CCN1CCN(c2ccc(S(=O)(=O)N3CCOCC3)cc2NC(=O)CCSC)CC1 | 4% | -10% | -4%
CCN(CC)C(=O)[C@H]1C[C@H](CC(=O)NCCCn2ccnc2)C(=O)N2CCc3c([nH]c4cc(-c5ccco5)ccc34)[C@]12C | -9% | -2% | -11%
C[C@H](NC(=O)c1ccco1)C(=O)NCc1cccs1 | 10% | 1% | -16%
O=C1N[C@H](Cc2ccccc2)COC(=O)[C@H](Cc2ccc(F)cc2)CC/C=C/C[C@@H]1CC(=O)N(CCO)Cc1ccccc1 | -12% | 0% | 5%
Cc1ccsc1/C=N/NC(=O)CNC(=O)c1ccc(S(=O)(=O)N2CCOCC2)cc1 | -1% | -2% | -2%
CC1CC1C(=O)OCC(=O)Nc1ccc(Cl)cn1 (stereo not drawn) | 1% | ? | 32%[activator]
O=C(Nc1ccccc1N1CCOCC1)c1ccc(Cl)c(S(=O)(=O)NCc2ccco2)c1 | 0% | 12% | 35%[activator]
Cc1cccc(C(=O)OCC(=O)NCCN2C(=O)CSC2=O)c1[N+](=O)[O-] | 1% | 6% | 0%
Cc1cccc(CCNC(=O)CCS(=O)(=O)c2ccc(Br)cc2)c1 | -1% | -8% | -5%
Cc1cc(Cl)ccc1OCC(=O)OCC(=O)NC1CCS(=O)(=O)C1 (stereo not drawn) | 1%[6.58 µM] | 16% | -10%
CCc1ccc(-c2nn(Cc3ccccc3)cc2C(=O)NCC2CCCO2)cc1 (stereo not drawn) | -19% | -8% | 71%[activator]
CCOC(=O)[C@H]1[C@H]2COc3ccc(Cl)cc3[C@@H]2N2C(=O)c3cc(Cl)ccc3NC(=O)[C@@]12C | -4% | 21% | ?
CCCNC(=O)c1onc(CS(=O)(=O)c2cccc(OC)c2)c1C(=O)NCCC | 0% | 1% | -4%
CC(C)(C)OC(=O)C[C@H]1C/C=C\C[C@H](CC(=O)N[C@@H](CO)Cc2ccccc2)C(=O)N[C@H](C(C)(C)C)COC1=O | 3% | 5% | -19%
CCCNC(=O)C(Cc1ccc(Br)cc1)NC(=O)c1ccc(C#N)cc1 (stereo not drawn) | 0% | -2% | 3%
Nc1ccc(OCC(O)C[n+]2ccc(CCS(=O)(=O)[O-])cc2)cc1 (stereo not drawn) | 1% | -11% | 6%
CCOc1ccccc1C(=O)NCC(=O)N1CCN(Cc2ccc3c(c2)OCO3)CC1 | 4% | -7% | -28%
O=C(c1ccco1)N1CCN(c2c([N+](=O)[O-])nn(-c3cccc(Cl)c3)[n+]2[O-])CC1 | 10% | 7% | ?
Cc1cccc(-n2ncc3c(=O)[nH]c(SCC(=O)N4CC(=O)Nc5ccccc54)nc32)c1 | -6% | 8% | -18%
CCN1C(=O)[C@H]2[C@@H](c3ccc(SC4CCCCC4)c(OC)c3)N3CCCC[C@@]3(C(=O)OC)[C@H]2C1=O | 3% | 1% | -24%
O=C(CN1C(=O)NC2(CCCCCCC2)C1=O)Nc1ccc(Br)cc1Br | 2% | -17% | -23%
O=C1NC2(CCCCC2)C(=O)N1CCN1C(=O)c2ccccc2C1=O | 1% | -5% | -19%
Cc1cccc(NC(=O)CN2CCN(C(=O)c3oc4c(Cl)cccc4c3C)CC2)c1C | -1% | -2% | ?
CCN1C(=O)[C@H]2[C@H]3CN=C(SCc4ccccc4)N3[C@@](C)(C(=O)OC)[C@H]2C1=O | -1% | 2% | -10%
C[C@@H](OC(=O)c1[nH]cnc1C(=O)N1CCN(C(=O)OC(C)(C)C)CC1)c1ccccc1 | 5% | -8% | -21%
CCOC(=O)c1c(C)[nH]c(C(=O)COC(=O)c2cccnc2Cl)c1C | -3% | 7% | 20%
Brc1cc2ccccc2[n+](Cc2ccccc2)c1 | 5% | 1% | -8%
CCN(C[C@H]1N[C@@](CC)(C(=O)OC)[C@H]2C(=O)N(Cc3ccccc3)C(=O)[C@@H]12)C(C)=O | 0% | -5% | 0%
Cc1ccc(OCCCC(=O)Nc2ccc(S(=O)(=O)N3CCOCC3)cc2)cc1 | -3% | 15% | ?
C[C@H](CO)N1C[C@H](C)[C@@H](CN(C)Cc2ccncc2)Oc2c(NC(=O)C3CCCCC3)cccc2C1=O | 2% | 6% | 36%[activator]
Nc1ncnc2c1ncn2[C@@H]1O[C@H](CNS(=O)(=O)c2ccc3c(c2)CCN(C(=O)C(F)(F)F)C3)[C@@H](O)[C@H]1O | 8% | 0% | -18%
COc1cccc(-c2noc(CCCC(=O)Nc3ccc(C(N)=O)cc3)n2)c1 | 2% | 15% | 8%
COc1ccc(NC(=O)COC(=O)c2n[nH]c3ccccc23)c(OC)c1 | -6% | 3% | 8%
C=CC[C@@H](CC(=O)N[C@H](CO)Cc1ccccc1)C(=O)N[C@H](COC(=O)[C@@H](CC=C)CC(=O)OC(C)(C)C)Cc1ccccc1 | -9% | -7% | ?
COc1ccc(NC(=O)CN(C)C(=O)c2cn(-c3ccccc3)nc2-c2ccc(OC)cc2)cc1 | -1% | 10% | 5%
O=C(NCC(c1ccc(F)cc1)N1CCOCC1)c1nn(-c2ccccc2)c(=O)c2ccccc12 (stereo not drawn) | -1% | -7% | ?
CSc1ccc(/C=N/NC(=O)c2ccc(-n3cnnn3)cc2)cc1 | 3% | -8% | 5%
Cc1ccc(-c2csc3ncnc(SCC(=O)NCC4CCCO4)c23)cc1 (stereo not drawn) | 5% | 0% | 8%
O=C1C=C(c2ccc(Cl)c(C(F)(F)F)c2)C[C@@H](c2ccc(F)cc2)C1 | -6% | 1% | ?
Cc1cc(C(=O)NCC(=O)Nc2c(C)cccc2C)c2ccccc2n1 | 2% | -3% | -26%
CCN(CC)C(=O)c1[nH]cnc1C(=O)Nc1cccc(C)c1 | 6% | 15% | 1%
Cc1cccc(C(=O)Nc2nsc(N)n2)c1 | -5% | 10% | -2%
COc1ccc(NS(=O)(=O)c2ccc(S(=O)(=O)N(C)C)cc2)cc1S(N)(=O)=O | 0% | 4% | -6%
Cc1ccccc1-c1nnc(SCC(=O)NCC2CCCO2)o1 (stereo not drawn) | 2% | 6% | 3%
O=C1CCN(Cc2ccccc2)S(=O)(=O)c2ccc(C(F)(F)F)cc21 | -6% | -6% | ?
O=C(Cn1cnc(Cl)c1Cl)c1ccccc1 | -5% | -13% | 11%
COc1ccccc1-c1sc2ccccc2c1-c1ccc(O)cc1 | -26% | ? | -13%
O=C(Nc1ccc(F)cc1)C1CCN(S(=O)(=O)c2cccs2)CC1 | -2% | 1% | -23%
C[C@@H]1NS(=O)(=O)[C@H]2C[C@@H]3C=C[C@]2(O3)[C@H]1OC(=O)c1ccccc1Br | -2% | -18% | -17%
Cc1ccc(/C=N/N=C2/NC(=O)CS2)o1 | 2% | 9% | 37%[activator]
CC(C)(C)c1ccc(NC(=O)C2=CC=CN3CCS(=O)(=O)N=C23)cc1 | -10% | -8% | 52%[activator]

Continuation.
mol | SARS PLpro yeast | RE007 growth inh | StopGo reporter
CC(/C=C/c1ccco1)=N\NC(=O)CNc1cccc(C)c1 | -6% | 14% | -16%
C/C(=N\NC(=O)c1ccncc1)c1ccc(N2CCOCC2)cc1 | 2% | -18% | -20%
CC(NC(=O)c1ccccc1Cl)C(=O)OCc1cn2cc(Cl)ccc2n1 (stereo not drawn) | -1% | 3% | 4%
CCC(C)Sc1ccc([C@H]2N[C@@](CC(C)C)(C(=O)OC)[C@H]3C(=O)N(C)C(=O)[C@@H]23)cc1 (stereo partly drawn) | -9% | 6% | -22%
CCOC(=O)c1c(C)[nH]c(NC(=O)NNC(=O)c2ccc(OC)cc2)c1C | -4% | 0% | -12%
CC(C)(C)OC(=O)C[C@@H]1C/C=C\C[C@H](CC(=O)N[C@H](CO)Cc2ccccc2)C(=O)N[C@@H](Cc2c[nH]c3ccccc23)COC1=O | -9% | -1% | -6%
Nc1oc2ccccc2c1C(=O)Cc1ccccc1O[C@@H]1O[C@H](CO)[C@@H](O)[C@H](O)[C@H]1O | -7% | 19% | -17%
C=C(C)C(O)COc1c2occc2c(OC)c2ccc(=O)oc12 (stereo not drawn) | 2% | 2% | 25%
COc1cccc(NC(=O)CN(C)C(=O)c2cc3c(s2)CCCC3)c1 | -2%[6.58 µM] | -18% | 32%[activator]
O=C(NCC(=O)N1CCCCCCC1)c1ccc(Cl)cc1 | -11% | 9% | 30%[activator]
Cc1ccccc1S(=O)(=O)Nc1ncnc2sccc12 | 5% | -3% | 23%
COC(=O)c1ccc(-c2c(-c3ccccc3)ncc3cc(F)ccc23)cc1 | 2% | 6% | 18%
Nn1c(COc2cccc(Br)c2)nnc1SCC(=O)NCC1CCCO1 (stereo not drawn) | 1% | -6% | -20%
CC[C@]12c3[nH]c4ccccc4c3CCN1C(=O)C(CC(=O)NCCC1=CCCCC1)C[C@@H]2C(=O)N1CCN(C(=O)C2CC2)CC1 (stereo partly drawn) | -5% | -10% | -16%
O=C(NCCc1ccccc1)C(=O)Nc1ccc2c(c1)OCCO2 | -4% | 3% | 64%[activator]
Cc1[nH]c2ccc(F)cc2c1CCN(Cc1cccnc1)C(=S)Nc1ccccc1 | -5% | 4% | 12%
CNC[C@H]1Oc2c(NC(=O)C3CC3)cccc2C(=O)N([C@H](C)CO)C[C@@H]1C | -21% | 1% | 1%
C=CC[C@@H](CC(=O)N(CCO)Cc1ccccc1)C(=O)N[C@H](COC(=O)[C@@H](CC=C)Cc1ccc(F)cc1)C(C)(C)C | -1% | -11% | ?
O=C(C[C@H]1C/C=C\C[C@@H](Cc2ccc(F)cc2)C(=O)OC[C@@H]2CCCN2C1=O)NCCO | 1% | 9% | -10%
O=C(C[C@@H]1C/C=C/CCCC(=O)O[C@H](c2ccccc2)CNC1=O)NCCO | 4% | -3% | -9%
COc1ccc(S(=O)(=O)N(C)C[C@H]2Oc3c(NC(=O)CCC(F)(F)F)cccc3C(=O)N([C@H](C)CO)C[C@@H]2C)cc1 | -7% | -1% | 59%[activator]
O=C1C(Cc2ccccc2)Nc2ncnc(N3CCN(c4ccccc4)CC3)c2N1Cc1ccccc1 (stereo not drawn) | 0% | 7% | -4%
O=C(NC1CC1)c1cc(-c2ccc(Br)cc2)nc2ccccc12 | -3% | -24% | -22%
CC(OC(=O)C1=Cc2ccccc2OC1)C(=O)NCc1ccco1 (stereo not drawn) | 0% | -7% | -6%

Exported with values under each structure: part of the list above
Every second line gives: SARS PLpro yeast	RE007 growth inh	StopGo reporter
- O=C1C(Cc2ccccc2)Nc2ncnc(N3CCN(c4ccccc4)CC3)c2N1Cc1ccccc1 (stereo not drawn)
  0%	7%	-4%
- COc1ccc(S(=O)(=O)N(C)C[C@H]2Oc3c(NC(=O)CCC(F)(F)F)cccc3C(=O)N([C@H](C)CO)C[C@@H]2C)cc1
  -7%	-1%	59%[activator]
- O=C(C[C@@H]1C/C=C/CCCC(=O)O[C@H](c2ccccc2)CNC1=O)NCCO
  4%	-3%	-9%
- O=C(C[C@H]1C/C=C\C[C@@H](Cc2ccc(F)cc2)C(=O)OC[C@@H]2CCCN2C1=O)NCCO
  1%	9%	-10%
- O=C(NC1CC1)c1cc(-c2ccc(Br)cc2)nc2ccccc12
  -3%	-24%	-22%

Other compounds
mol | SARS PLpro yeast | RE007 growth inh | StopGo reporter
CC1(c2nnc(Cc3ccccc3)o2)CC(c2cccc(F)c2)=NO1 (stereo not drawn) | -7% | 0% | -6%
CC1CCC2(CC1)NC(=O)N(NC(=O)CSc1nnc(NC3CC3)s1)C2=O (stereo not drawn) | 8% | 7% | -14%
COc1cccc(CNC(=O)COC(=O)CN2C(=O)NC3(CCCCC3C)C2=O)c1 (stereo not drawn) | 4% | -6% | 2%
CC[C@]12c3[nH]c4ccc(Cl)cc4c3CCN1C(=O)[C@@H](CC(=O)NC(C)(C)C)C[C@@H]2C(=O)N1CCN(C(=O)c2ccco2)CC1 | 18% | 6% | -16%
O=C(O)c1ccc2c(c1)N(Cc1ccc(F)cc1)C(=O)c1ccccc1S2 | 0% | -4% | -8%
COc1cccc(NC(=O)CN(C)C(=O)c2cc(C)oc2C)c1 | -15% | 1% | 3%
CCC(=O)Nc1ccc(C(=O)CN2C(=O)NC3(CCCCCC3)C2=O)cc1 | -1% | 1% | -4%
Cc1ccc2c(c1)[C@H]1[C@H](CO2)[C@H](c2ccccc2)[C@]2(C)C(=O)Nc3ccc(Cl)cc3C(=O)N12 | 2% | 18% | -23%

From PubChem BioAssay

A portion of the library; the hit share may differ from the screen's.
